# Screening results (PubChem BioAssay)
# Rango complex inh: prevents formation of the Rango-importin beta complex; AID 540263; Q14974; Potency, µM (highest dose often 92.2 µM), for inactives: at the top dose inhibition of complex formation; 0.031% of 340,000 active; Rango CFP/YFP FRET sensor + importin beta, 45 min; active = rising FRET ratio curve, often small or poorly fitted; inconclusive = mostly compound fluorescence or quenching in the first reads; inactive = flat curves in all reads;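 also: potency is read from the fitted curve at half-maximal effect; 0% = DMSO wells and 100% = buffer wells lacking importin beta; nearly all actives have a fitted effect of over 15% in size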
# Target sequence (Q14974 whole entry, looked up): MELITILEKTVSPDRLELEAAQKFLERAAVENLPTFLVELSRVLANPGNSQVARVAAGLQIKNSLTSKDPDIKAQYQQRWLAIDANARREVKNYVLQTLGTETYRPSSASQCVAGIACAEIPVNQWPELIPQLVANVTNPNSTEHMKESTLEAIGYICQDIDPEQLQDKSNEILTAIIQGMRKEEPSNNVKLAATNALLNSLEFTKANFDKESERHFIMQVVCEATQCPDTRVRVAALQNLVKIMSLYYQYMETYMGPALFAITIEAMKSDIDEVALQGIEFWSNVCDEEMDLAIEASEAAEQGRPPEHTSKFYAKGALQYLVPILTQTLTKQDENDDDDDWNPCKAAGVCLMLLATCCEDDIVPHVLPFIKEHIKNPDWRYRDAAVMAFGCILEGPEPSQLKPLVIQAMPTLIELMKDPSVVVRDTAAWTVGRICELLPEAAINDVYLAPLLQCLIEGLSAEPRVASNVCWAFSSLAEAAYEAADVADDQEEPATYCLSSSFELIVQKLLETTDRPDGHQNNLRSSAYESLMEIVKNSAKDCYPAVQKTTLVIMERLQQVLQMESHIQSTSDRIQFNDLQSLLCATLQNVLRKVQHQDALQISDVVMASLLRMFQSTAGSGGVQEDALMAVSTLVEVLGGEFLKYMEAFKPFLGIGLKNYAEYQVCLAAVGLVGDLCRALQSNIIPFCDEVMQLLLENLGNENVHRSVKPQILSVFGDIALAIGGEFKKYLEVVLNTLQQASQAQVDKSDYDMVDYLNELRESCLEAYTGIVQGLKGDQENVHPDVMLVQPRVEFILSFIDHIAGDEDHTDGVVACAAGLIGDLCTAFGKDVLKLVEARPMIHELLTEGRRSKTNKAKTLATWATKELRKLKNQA
#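 FRET biosensor (snurportin 1 IBB flanked by EYFP and cerulean), 50 nM, with compound 5 min, then 0.125 microM importin beta in PBS, 1 mM DTT, 0.02% Tween-20, 0.1% BSA. CFP/YFP ratio read after 45 min at room temperature; pre-read flags interference.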
# GLA inh pH 4.5: alpha-galactosidase A (human) inhibition, pH 4.5 | P06280 | purified enzyme, 4-MU-alpha-Gal fluorescence, pH 4.5 | activity change, negative = inhibition, % at 105 µM | 230,000 tested, under 10 active | AID 1467; inconclusive = small, poorly fitted or top-dose-only inhibition, or a rising curve; inactive = flat fitted curve, though single readings scatter; no compound was filed as active;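 also: 0% = full activity with enzyme and -100% = basal without enzyme; dose as in the result columns while the protocol names 77 µM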
# Rango dissoc inh: inhibition of RanGTP-driven Rango-importin beta dissociation; Biochemical FRET Rango-importin beta, RanGTP-induced dissociation; O95149+P62826; Potency, µM (top dose mostly 46.1 µM), without a hit: at the top dose activity change, negative = inhibition; 0.071% of 340,000 active; AID 540253; active means falling FRET ratio curve, often poorly fitted, with flat reads before Ran was added; inconclusive means other falling curves, or compound fluorescence or quenching; inactive means flat or rising ratio curve;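 also: potency is read from the fitted curve at half-maximal effect; % of control where 0% means no effect; nearly all actives have a fitted effect of over 45% in size; -100% = wells without RanGTP and RCC1; the record marks most hits as doubtful in a second field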
#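 Compounds sat 5 min at room temperature with 0.1 uM Rango biosensor plus 0.25 uM importin beta, then FRET pre-read. RanGTP-RCC1 (0.6 uM Ran, 2mM GTP, 0.2 uM RCC1) added for 45 min, and the CFP/YFP post-read measured blocked complex dissociation.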
# miR-21 reporter: miR-21 reporter, rising signal; 340,000 tested, under 10 active; Potency, µM (titrated, usually from 38.3 µM), inactives show top-dose reporter change, positive = more light; HeLa miR-21 FLuc reporter, luciferase, 48 h; active = well fitted rising curve with a large enough effect; inconclusive = small, poorly fitted or top-dose-only effect; inactive = no such curve, though single readings can be large or run the other way;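 also: % of control where 0% means no effect; miR-21 action dims this reporter so a rising signal means less miR-21 action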
#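 HeLa miR-21-FLuc reporter line, endogenous miR-21; 2000 cells/well in DMEM/10% FBS; compound titration up to ~40uM final, 48 h, 37 degree Celsius; luciferase detection reagent, 15 min lysis, CCD luminescence.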
# Active calls of the source: *; ? = inconclusive; / = no result given. This is a subset; count on the stated rates, not on these rows.
# Second line of a record – Rango complex inh, GLA inh pH 4.5, Rango dissoc inh, miR-21 reporter
> COC(=O)Cn1c(=O)c2c(nc3n2CC(C)CN3c2ccc(C)c(C)c2)n(C)c1=O (stereo not drawn)
→ 3.0%, 17.0, 9.9%, 1.9%
> c1ccc(Oc2cccc(OCCCn3cncn3)c2)cc1
→ -2.9%, -3.6, 40.7%, -19.0%
> COc1cc(-c2nc3c(c(C)nn3-c3ccccc3)c3cc(OC)c(OC)cc23)ccc1O
→ -2.9%, 18.8, -6.9%, -7.2%
> C/C(=C\c1cccc(Cl)c1)C(=O)c1c(C)cc(C)[nH]c1=O
→ 2.4%, /, 3.3%, 7.5%
> CC(NC(=O)[C@H](NC(=O)[C@@H]1Cc2ccccc2CN1)c1ccccc1)c1ccccc1 (stereo partly drawn)
→ 2.8%, /, 5.1%, -3.0%
> COc1ccccc1NC(=O)CN(c1ccccc1F)S(C)(=O)=O
→ 0.7%, -2.2, 0.2%, -7.5%
> CCN(C(=O)CCCC(=O)N(CC)c1ccccc1)c1ccccc1
→ 0.1%, 2.5, -9.8%, -3.7%
> O=C(NNC(=O)c1cc(Br)ccc1O)c1csc(N2CCOCC2)n1
→ 0.3%, /, -1.6%, /
> Cc1ccc(CNC(=O)NC23CC4CC(CC(C4)C2)C3)cc1
→ 2.4%, 2.8, 22.8%, -8.0%
> Cc1c(Cl)cccc1NC(=S)NCCc1ccccn1
→ 8.0%, -0.4, -3.4%, -6.0%
> CCOc1ccccc1C(=O)NCC(=O)OCC(=O)c1c(N)n(C)c(=O)n(C)c1=O
→ -2.5%, /, 10.6%, /
> O=C(O)c1ccc(S(=O)(=O)N(Cc2ccccc2)Cc2ccccc2)cc1
→ 2.5%, /, 32.0%, 2.6%
> COc1ccc(NC(=O)C(C)SCc2ccccc2)cc1OC (stereo not drawn)
→ -0.6%, 0.1, -7.1%, -4.2%
> CN(CC(=O)N1CCN(Cc2ccccc2)CC1)C(=O)Cc1cccc2ccccc12
→ -1.7%, /, -18.5%, /
> CCOC(=O)c1oc2ccccc2c1COC(=O)CNC(=O)c1ccccc1
→ 2.5%, /, 5.7%, -8.7%
> COc1ccc(-n2c(=S)[nH]c3cc(C(=O)NCc4ccccc4OC)ccc3c2=O)c(OC)c1
→ 4.3%, /, 0.4%, 9.5%
> Cc1ccccc1NC(=O)c1cccc(C(=O)Nc2ccccc2C)c1
→ 3.0%, /, 3.2%, /
> COc1cc(C2C3=C(CC(C)(C)CC3=O)N(C)C3=C2C(=O)CC(C)(C)C3)cc(Br)c1O
→ ?, /, ?, -3.6%
> Cc1cccn2c(=O)c3cc(S(=O)(=O)c4ccccc4)c(=N)n(Cc4cccnc4)c3nc12
→ ?, /, ?, -0.3%
> COc1ccc2ccccc2c1C(O)c1nccn1C (stereo not drawn)
→ ?, 3.2, ?, -0.9%
> COc1cccc(NC(=O)c2ccc(NC(=O)C(C)C)cc2)c1
→ -2.3%, -1.3, 17.4%, -40.2%
> Cc1cc(Cl)ccc1OCC(=O)OCC(=O)NC1CCCC1
→ -5.7%, /, 1.3%, /
> CCC(C)Nc1nc2c(C)cccn2c(=O)c1C=Nc1ccc(OC)cc1 (stereo not drawn)
→ -0.4%, -3.5, -9.5%, -11.2%
> Cc1ccc(N2CCN(C(=O)c3ccccc3NC(=O)/C=C\C(=O)O)CC2)cc1
→ 0.3%, 1.9, -0.6%, -25.6%
> CN(C)c1nc(-c2cn(CCC#N)c3ccccc23)cs1
→ ?, /, ?, ?
> C=C(C)C(=O)N1CC2(CC(c3cccc(NC(=O)CC)c3)=NO2)C[C@H]1C(N)=O (stereo partly drawn)
→ 0.0%, -14.5, 37.5%, 2.5%
> O=C(Cn1cc(Cl)c([N+](=O)[O-])n1)NCCC1=CCCCC1
→ 6.3%, /, 4.1%, -19.2%
> O=C(CSc1nc2[nH]ncc2c(=O)[nH]1)NCc1ccccc1
→ 0.2%, 5.8, -12.9%, -0.9%
> CC(=NCCN1CCN(C(C)=C2C(=O)c3ccccc3C2=O)CC1)C1=C(O)CC(C)(C)CC1=O
→ -0.1%, 3.1, 13.5%, -8.0%
> O=C(CN1CCCC1)Nc1c(C(=O)C2CC2)oc2ccccc12
→ -1.0%, 9.1, -21.0%, -2.9%

# More structures
# Second line of a record – Rango complex inh, GLA inh pH 4.5, Rango dissoc inh, miR-21 reporter
> CN(C)C(=O)/C=C\c1cn(-c2ccccc2)nc1-c1ccc2c(c1)OCCO2
→ -2.4%, 0.7, 12.6%, 5.8%
> O=C(Nc1cccc(F)c1)OC(CN1CCCCC1)C(F)(F)F (stereo not drawn)
→ 0.5%, -11.4, 7.7%, -11.2%
> CCOCCCNC(=O)/C(C#N)=C/c1ccc([N+](=O)[O-])o1
→ ?, 4.2, -27.5%, 9.5%
> CCCC(C(=O)N1CCOCC1)N1C(=O)C2C3C=CC(C3)C2C1=O (stereo not drawn)
→ 0.2%, 6.8, -1.1%, -4.7%
> CC(=O)Nc1cccc(NC(=O)c2cc3ccccc3o2)c1
→ 0.4%, 5.2, -14.5%, -30.1%
> O=C(CSc1nncc2ccccc12)N1CCCCC1
→ -0.4%, 10.2, -7.3%, -47.4%
> CN(Cc1cnc2nc(N)nc(N)c2n1)c1ccc(C(=O)NC(CCC(=O)O)C(=O)O)c2ccccc12 (stereo not drawn)
→ ?, /, -10.4%, /
> CC(=O)N1N=C(c2ccccc2)CC1c1cccs1 (stereo not drawn)
→ -2.4%, /, 1.0%, -18.8%
> Cc1cc(C)c(NC(=O)CNC(=O)CNC(=O)C2CCCCC2)c(C)c1
→ 1.6%, /, -9.2%, /
> Cc1cc(NC(=O)NC2CCCN2S(=O)(=O)c2ccc(Cl)cc2)no1 (stereo not drawn)
→ -0.7%, 0.9, 1.6%, -0.3%
> Cc1cc(/C=C2\SC(=S)NC2=O)cc(C)c1O
→ ?, -9.7, ?, -55.1%
> COc1ccc(N2CC(C(=O)Nc3ccc4c(c3)OCCO4)CC2=O)cc1 (stereo not drawn)
→ 1.5%, /, -7.3%, -5.5%
> c1ccc(Oc2cccc(CN3CCCCC3)c2)cc1
→ 3.6%, -6.3, 6.7%, -3.9%
> Cc1noc2ncnc(SCc3ccc(C(F)(F)F)cc3)c12
→ -0.4%, -6.0, 5.4%, 4.6%
> O=C(COC(=O)c1ccc(F)cc1)Nc1nc2ccc([N+](=O)[O-])cc2s1
→ 0.2%, 5.7, -17.7%, -4.3%
> Cc1cc(NC(=O)CCN2C(=O)/C(=C/c3ccccc3F)SC2=S)no1
→ /, -2.4, /, 5.3%
> COc1ccc(-c2noc(CN3C(=O)c4ccccc4C3=O)n2)cc1
→ -3.2%, 4.8, 7.0%, -3.5%
> CCCN(CC(=O)Nc1ccccc1C)C(=O)C1CCCN(C(=O)c2ccc(Cl)cc2)C1 (stereo not drawn)
→ -1.9%, /, 34.2%, /
> O=C(Cc1ccccc1[N+](=O)[O-])NCC(O)c1ccc2c(c1)OCO2 (stereo not drawn)
→ -4.4%, /, 0.5%, /
> O=C(O)c1ccc(Nc2cnc3ccccc3n2)cc1
→ -4.1%, 8.8, 0.3%, -85.2%
> Cn1c(=O)c2ccccc2n(CC(=O)NC2CCCC2)c1=O
→ 0.1%, /, 0.0%, -3.4%
> O=[N+]([O-])c1ccc(N2CCN(c3ccc(O)cc3)CC2)cn1
→ -3.2%, /, 3.4%, 10.8%
> CCOC(=O)c1cnc2ccc(Br)cc2c1NCCO
→ -0.3%, 2.0, 1.5%, -0.1%
> Cc1ccc(-n2nc(C)c3onc(C)c3c2=O)cc1
→ -0.3%, -5.1, -11.4%, -3.0%
> CC1CCCN(C(=O)COc2ccc(-c3ccccc3)cc2)C1 (stereo not drawn)
→ -0.1%, -5.7, 3.2%, -20.8%
> COc1cc2c(cc1OC)C(c1ccccc1)N(C(=O)c1ccccc1)CC2 (stereo not drawn)
→ -0.7%, /, -6.4%, 2.5%
> O=C(Nc1ccc2c(c1)OCO2)c1cc(-c2ccccc2Cl)on1
→ ?, /, 0.8%, -49.4%
> CCOc1ccc2nc(NCCCNS(=O)(=O)c3ccc(C)cc3)c(C#N)cc2c1
→ ?, -12.0, ?, 0.3%
> CCCCC(c1nnnn1CC1CCCO1)N1CCN(Cc2ccccc2)CC1 (stereo not drawn)
→ 0.4%, -0.6, -2.8%, -7.7%
> COC(=O)Cc1ccc(NC(=S)NCC(C)C)cc1
→ 0.6%, 3.8, 2.1%, -20.4%

# Single records, from the list above. Order of values: Rango complex inh | GLA inh pH 4.5 | Rango dissoc inh | miR-21 reporter
# `CC(=O)N1N=C(c2ccccc2)CC1c1cccs1` (stereo not drawn) as listed: -2.4% | / | 1.0% | -18.8%
# `O=C(Nc1ccc2c(c1)OCO2)c1cc(-c2ccccc2Cl)on1` as listed: ? | / | 0.8% | -49.4%
# `c1ccc(Oc2cccc(CN3CCCCC3)c2)cc1` as listed: 3.6% | -6.3 | 6.7% | -3.9%
# `Cc1cc(/C=C2\SC(=S)NC2=O)cc(C)c1O` as listed: ? | -9.7 | ? | -55.1%

# Continued.
# Second line of a record – Rango complex inh, GLA inh pH 4.5, Rango dissoc inh, miR-21 reporter
> CC(C)CC(NC(=O)C(NC(=O)OC(C)(C)C)C(C)C)C(=O)N1CCCC1C(N)=O (stereo not drawn)
→ -1.7%, 7.3, -2.5%, -7.1%
> CC1(C)CC(=O)C2=C(C1)NC(SCC(N)=O)=C(C#N)C21CCCCC1
→ ?, 0.4, ?, 6.5%
> Cc1cc(N2O[C@]34C=C[C@]25C[C@@H](O)CC[C@]5(C)C3CC[C@]2(C)[C@@H]([C@H](C)/C=C/[C@H](C)C(C)C)CC[C@H]24)no1 (stereo partly drawn)
→ 3.2%, /, 5.4%, /
> O=C(/C=C/c1ccco1)Nc1cccc2cccnc12
→ ?, 0.9, ?, -44.4%
> Cn1cc(C(=O)N2CCN(c3ccccc3)CC2)c(=O)c2cc(S(=O)(=O)N3CCOCC3)ccc21
→ -8.4%, /, -1.4%, 0.9%
> COc1ccc(-c2csc3nc(C)n(-n4cccc4)c(=O)c23)cc1OC
→ -2.0%, 0.7, 1.2%, -6.2%
> CCN(CC1CCCN(CCc2cccc(F)c2)C1)C(=O)c1ccc(CSC)o1 (stereo not drawn)
→ -3.5%, /, -15.8%, -1.2%
> Cc1onc(-c2ccccc2Cl)c1C(=O)Nc1ccc(-c2cn3cccnc3n2)cc1
→ 0.4%, 22.8, -17.2%, 0.6%
> CCOc1ccc(/C=N/NC(=O)C2CC2)c(OCC)c1
→ -1.2%, /, -2.5%, -1.2%
> CN(C)C(=O)c1cc(C(=O)c2ccccc2)c[nH]1
→ 0.0%, /, -0.6%, -30.6%
> O=C(Cn1nc(-c2ccco2)ccc1=O)Nc1ccc(Br)cc1
→ 0.3%, /, -3.8%, -0.5%
> Oc1ccccc1-c1nc(N2CCN(Cc3ccccc3)CC2)c2ccccc2n1
→ -0.4%, 0.0, -2.0%, 1.2%
> CCN(CC(=O)Nc1ccc2c(c1)OCO2)CC(=O)Nc1ccccc1C(F)(F)F
→ 2.1%, /, -5.4%, /
> CCOCCCN1C(=O)CN(C2CCCCCC2)C(=O)C1c1ccc(OC)cc1 (stereo not drawn)
→ -2.6%, 11.3, 12.3%, -20.1%
> CCOC(=O)NC(=O)C(=CNc1ccc(C)cc1)C(=O)NC(=O)OCC
→ 5.5%, -3.4, 6.4%, 4.2%
> Cc1cnc(NC(=O)CSC(=S)N2CCOCC2)s1
→ -1.6%, 7.5, 8.8%, -9.9%
> C[S+](CC[C@H](N)C(=O)O)C[C@H]1O[C@@H](n2cnc3c(N)ncnc32)[C@H](O)[C@@H]1O (stereo partly drawn)
→ 2.4%, /, -5.9%, /
> COc1ccc(C2CC(c3ccccc3)=NN2C(=O)CN2CCN(Cc3ccccc3)CC2)cc1 (stereo not drawn)
→ ?, -4.9, 6.0%, -11.3%
> NCCc1nnc(SCc2c(F)cccc2Cl)o1
→ 11.0%, -1.6, -3.6%, -13.9%
> CC(NS(=O)(=O)c1ccccc1)C(=O)Nc1nccs1 (stereo not drawn)
→ -4.9%, -2.7, -14.5%, -8.1%
> CCCCNC(=O)Nc1nnc(-c2ccccc2)o1
→ 6.8%, 4.1, 12.3%, -23.6%
> Cc1ccc(OCC(=O)N/N=C/c2cn[nH]c2-c2ccc(Cl)c(Cl)c2)cc1
→ 3.1%, -0.3, 1.2%, 0.0%
